RanGTP-Impb inh: disruptors of Ran-importin-beta complex formation – biochemical, FRET, CFP-Ran, YFP-importin-beta, homogeneous, primary screen; cell-free CFP-Ran/YFP-importin-beta FRET ratio; inhibition, % (concentration not given with the values); actives 1.1% (n = 300,000);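 active means most replicates above 15%; inconclusive means exactly half above 15%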;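 further: 0% = DMSO wells and 100% = Ran loaded with GDP instead of GTP; wells of about 40 µL received 100 nL stock; the first replicate is given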
Vif TR-FRET: HIV-1 Vif–A3G interaction blockers – biochemical, TR-FRET, GST-Vif 1-94, biotin-A3G peptide, dose response retest, primary screen (AID 1117319) | TR-FRET GST-Vif / biotin-A3G peptide binding; higher % means a stronger effect; test concentration not given here; strong numbers were not always called active | one-dose inhibition, %; IC50 in µM for titrated hits | actives 0.57% (n = 260,000);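 active means above the screen mean plus three standard deviations and confirmed in dose response; inconclusive means results disagree or hit not tested in dose response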;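 further: Vif residues 1-94 fused to GST binding biotinylated APOBEC3G peptide 110-148; 0% = full assay without inhibitor and 100% = GST in place of GST-Vif; retest series ran down from 100 µM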
ALR H2O2 inh: human ALR oxidase inhibition via reduced H2O2 | actives 3.8% (n = 290,000) | AID 485317 | purified ALR, DTT oxidation, H2O2 HRP-luminol luminescence | inhibition, % (test concentration not listed);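 active means mean and each replicate at 75% or more; inconclusive means only one of the two met; inactive means neither met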;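 further: stock transfer was 7.5 nL into about 7.5 µL; 0% = neutral wells and 100% = wells with inactivated enzyme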
Target sequence (P55789 whole entry, looked up): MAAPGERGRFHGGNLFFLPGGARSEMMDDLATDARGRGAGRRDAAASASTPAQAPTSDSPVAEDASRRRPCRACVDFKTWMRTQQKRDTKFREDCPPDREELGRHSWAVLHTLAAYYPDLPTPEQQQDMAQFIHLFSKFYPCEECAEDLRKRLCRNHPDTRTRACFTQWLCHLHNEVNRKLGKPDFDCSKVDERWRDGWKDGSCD
Beta2AR agonist: agonists of human beta-2 adrenergic receptor inducing internalization | Am2.2-beta2AR cells, FAP receptor internalization, flow cytometry; reference of the scale not given here | response, % (test concentration not listed) | actives 0.43% (n = 340,000) | AID 504454;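 active means response above a set limit, near 3 SD of response in nonfluorescent compounds, cut at about 42% in these data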;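 further: stock transfer was 100 nL into about 11 µL; a reference agonist was the positive control; negative values mostly stem from fluorescent compounds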
Target sequence (P07550 whole entry, looked up): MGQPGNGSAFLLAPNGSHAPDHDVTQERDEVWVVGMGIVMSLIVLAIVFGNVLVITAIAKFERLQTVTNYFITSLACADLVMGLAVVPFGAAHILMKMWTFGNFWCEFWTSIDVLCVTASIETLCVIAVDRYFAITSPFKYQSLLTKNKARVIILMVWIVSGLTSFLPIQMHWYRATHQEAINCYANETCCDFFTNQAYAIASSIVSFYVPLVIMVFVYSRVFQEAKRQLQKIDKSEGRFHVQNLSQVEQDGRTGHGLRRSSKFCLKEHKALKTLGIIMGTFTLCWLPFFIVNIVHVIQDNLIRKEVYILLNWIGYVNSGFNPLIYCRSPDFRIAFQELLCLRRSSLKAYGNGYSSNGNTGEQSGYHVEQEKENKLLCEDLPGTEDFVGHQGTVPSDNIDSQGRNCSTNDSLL
HNF4A DNA FP: change in binding of human HNF4 alpha to DNA. AID 1224865. activity change, % at 10 µM. HNF4a-FITC DNA binding, fluorescence polarization, 1 h. actives 0.3% (n = 360,000); in the data active means activity change above about 30%, passing the limit was not always enough;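 further: controls were the assay level and a saturating level of protein; the project sought stronger binding though the title names inhibitors; some compounds called inactive have numbers as strong as hits; positive values seem to mean higher polarization but the record does not say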
Target sequence (P41235 whole entry, looked up): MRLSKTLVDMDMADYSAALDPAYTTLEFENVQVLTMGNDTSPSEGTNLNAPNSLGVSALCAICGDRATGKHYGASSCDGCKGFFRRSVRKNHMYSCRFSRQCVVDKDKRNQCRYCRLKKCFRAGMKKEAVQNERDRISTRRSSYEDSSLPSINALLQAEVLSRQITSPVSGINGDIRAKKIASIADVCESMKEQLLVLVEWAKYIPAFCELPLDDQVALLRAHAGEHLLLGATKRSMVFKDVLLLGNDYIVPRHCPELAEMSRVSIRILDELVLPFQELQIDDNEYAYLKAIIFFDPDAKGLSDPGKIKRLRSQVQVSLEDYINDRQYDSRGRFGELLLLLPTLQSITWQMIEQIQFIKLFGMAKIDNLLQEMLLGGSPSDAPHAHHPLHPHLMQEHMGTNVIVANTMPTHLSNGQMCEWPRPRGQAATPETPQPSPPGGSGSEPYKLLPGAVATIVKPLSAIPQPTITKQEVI
Calb FLC: C. albicans growth modulation with fluconazole; C. albicans CaCi-2 (fluconazole-resistant clinical isolate) + fluconazole, Alamar Blue growth, 48 h; growth inhibition, % (test concentration not listed); actives 0.57% (n = 300,000); AID 1979;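 active means most replicates above 75%; inconclusive means exactly half above 75%; inactive means most below 75%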;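 further: all wells also contain fluconazole at 8 µg/ml as a sub-toxic cotreatment; 0% = median of DMSO wells and 100% = median of geldanamycin control wells; wells of about 8 µL received 7.5 nL stock; the first replicate is given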
LANA-H2A inh: blocks KSHV LANA binding to histone H2A/H2B; cell-free LANA-H2A/H2B peptide, fluorescence polarization; inhibition, % (test concentration not listed); actives 0.6% (n = 320,000); in the data active means inhibition mostly above about 10%, no sharp cut-off; inactive means mostly below about 6.7%;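 further: stock transfer was 7.5 nL into about 10 µL; 0% = median of vehicle wells and 100% = median of positive control wells; one replicate is shown; the record names a cut of 25% in any replicate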
Active calls of the source: *.

How did CCOC(=O)C1CCN(C(=O)c2c(-c3ccccc3)noc2C)CC1 do in these assays?
RanGTP-Impb inh: 1.8; ALR H2O2 inh: -6; Beta2AR agonist: 8; HNF4A DNA FP: -5.7; Calb FLC: 17; LANA-H2A inh: -1.6

What do the screens show for `CC(CN1CCCCC1)OC(=O)c1ccc(Cl)cc1Cl` (stereo not given)?
RanGTP-Impb inh: -0.9; Vif TR-FRET: 2%; ALR H2O2 inh: -2; Beta2AR agonist: 0; HNF4A DNA FP: 4.5; LANA-H2A inh: 11

How did CC(Oc1ccccc1)C(=O)N1CCN=C1SCc1cccc(F)c1 (stereo not given) do in these assays?
RanGTP-Impb inh: -1.0; Vif TR-FRET: 2%; ALR H2O2 inh: 6; Beta2AR agonist: 10; HNF4A DNA FP: -2.4; Calb FLC: -1; LANA-H2A inh: 2.1

What do the screens show for `Cc1cc2cc(CNC(=O)c3ccc(S(=O)(=O)N4CCCCC4)cc3)ccc2[nH]1`?
RanGTP-Impb inh: 0.0; Vif TR-FRET: -17%; Beta2AR agonist: 4; HNF4A DNA FP: -3.8; Calb FLC: -1; LANA-H2A inh: 7.4

What do the screens show for `CN(Cc1ccccc1)C(=O)c1cccc(C(=O)N(C)Cc2ccccc2)c1`?
RanGTP-Impb inh: -4.0; ALR H2O2 inh: -13; Beta2AR agonist: 3; HNF4A DNA FP: 0.3; Calb FLC: 5; LANA-H2A inh: 0.2

How did Cc1cc(C)n(CC(=O)NCc2ccccc2)c(=O)c1C#N do in these assays?
RanGTP-Impb inh: 0.4; Vif TR-FRET: -9%; Beta2AR agonist: -3; HNF4A DNA FP: 1.0; Calb FLC: -1; LANA-H2A inh: 3.0

How did Cc1cc2cc(CCNC(=O)c3c(-c4ccccc4Cl)noc3C)c(=O)[nH]c2cc1C do in these assays?
RanGTP-Impb inh: -1.9; Vif TR-FRET: -6%; Calb FLC: -4

What do the screens show for `CCOC(=O)c1c(C)[nH]c(C)c1S(=O)(=O)N(C)CC(=O)N1CCN(c2ccc(OC)cc2)CC1`?
RanGTP-Impb inh: 4.9; ALR H2O2 inh: 25; Beta2AR agonist: -5; HNF4A DNA FP: 0.5; Calb FLC: -14; LANA-H2A inh: 4.1

What do the screens show for `COc1ccc(S(=O)(=O)NCCCN2CCOCC2)c2ccccc12`?
RanGTP-Impb inh: 2.8; Vif TR-FRET: 2%; ALR H2O2 inh: -31; Beta2AR agonist: -5; HNF4A DNA FP: -0.6; Calb FLC: 29; LANA-H2A inh: 6.0

Results for COc1ccc(CCN2CC(C(=O)Nc3ccc(S(C)(=O)=O)cc3)CC2=O)cc1OC (stereo not given) ?
RanGTP-Impb inh: -2.1; Vif TR-FRET: 3%; ALR H2O2 inh: -1; Beta2AR agonist: 3; HNF4A DNA FP: -1.8; Calb FLC: 4; LANA-H2A inh: -5.1

Three compounds out of the list, arranged by number of heavy atoms, ascending:
What do the screens show for `CN(Cc1ccccc1)C(=O)c1cccc(C(=O)N(C)Cc2ccccc2)c1`?
RanGTP-Impb inh: -4.0; ALR H2O2 inh: -13; Beta2AR agonist: 3; HNF4A DNA FP: 0.3; Calb FLC: 5; LANA-H2A inh: 0.2

What do the screens show for `Cc1cc2cc(CNC(=O)c3ccc(S(=O)(=O)N4CCCCC4)cc3)ccc2[nH]1`?
RanGTP-Impb inh: 0.0; Vif TR-FRET: -17%; Beta2AR agonist: 4; HNF4A DNA FP: -3.8; Calb FLC: -1; LANA-H2A inh: 7.4

What do the screens show for `CCOC(=O)c1c(C)[nH]c(C)c1S(=O)(=O)N(C)CC(=O)N1CCN(c2ccc(OC)cc2)CC1`?
RanGTP-Impb inh: 4.9; ALR H2O2 inh: 25; Beta2AR agonist: -5; HNF4A DNA FP: 0.5; Calb FLC: -14; LANA-H2A inh: 4.1

Next entries follow:
Results for O=C(NCCC1CCCC1)C1CCC(=O)N(CCCN2CCCC2=O)C1 (stereo not given) ?
RanGTP-Impb inh: 4.1; ALR H2O2 inh: -15; Beta2AR agonist: 0; HNF4A DNA FP: 2.5; Calb FLC: -7; LANA-H2A inh: -4.2

What do the screens show for `CCc1ccc2nc(NC(=O)C3CSC4(C)CCC(=O)N34)sc2c1` (stereo not given)?
RanGTP-Impb inh: 1.3; Vif TR-FRET: 9%; ALR H2O2 inh: 1; Beta2AR agonist: 4; HNF4A DNA FP: 1.7; Calb FLC: -3; LANA-H2A inh: -1.3

How did Cc1nc2ccc(CCO)cc2s1 do in these assays?
RanGTP-Impb inh: -0.2; Vif TR-FRET: -3%; Beta2AR agonist: -2; HNF4A DNA FP: 5.7; Calb FLC: -1; LANA-H2A inh: 0.7

What do the screens show for `COc1ccc(C)cc1NC(=O)CN1C(=O)C2CC=CCC2C1=O` (stereo not given)?
ALR H2O2 inh: -2; Beta2AR agonist: -8; HNF4A DNA FP: -5.8; LANA-H2A inh: -2.0

How did COC(=O)N/N=C/c1ccc(OS(=O)(=O)c2ccc(C)cc2)c(OC)c1 do in these assays?
RanGTP-Impb inh: -1.6; Vif TR-FRET: 24%; ALR H2O2 inh: -1; Beta2AR agonist: 6; HNF4A DNA FP: 1.1; Calb FLC: 8; LANA-H2A inh: 6.9

Results for O=[N+]([O-])c1ccc2c(c1)/C(=N\O)c1ccccc1-2 ?
RanGTP-Impb inh: -3.2; Vif TR-FRET: 8%; ALR H2O2 inh: 5; Beta2AR agonist: 8; HNF4A DNA FP: -2.0; Calb FLC: -1; LANA-H2A inh: 3.5

What do the screens show for `CCCc1[nH]n(-c2nc3ccccc3s2)c(=O)c1C=NCC1CCCO1` (stereo not given)?
RanGTP-Impb inh: 3.8; Vif TR-FRET: 3%; ALR H2O2 inh: 60; Beta2AR agonist: -23; HNF4A DNA FP: 2.1; Calb FLC: 15; LANA-H2A inh: -2.0

How did CCCOc1ccc(/C(O)=C2/C(=O)C(=O)N(CCN(C)C)C2c2ccco2)cc1 (stereo not given) do in these assays?
RanGTP-Impb inh: -3.8; Vif TR-FRET: 3%; ALR H2O2 inh: -11; Beta2AR agonist: 1; HNF4A DNA FP: 20; Calb FLC: 6; LANA-H2A inh: 0.4

How did COc1ccc2c(C)nc(N/C(N)=N/S(=O)(=O)c3ccc(C)cc3)nc2c1 do in these assays?
RanGTP-Impb inh: 3.8; Vif TR-FRET: -12%; ALR H2O2 inh: 2; Beta2AR agonist: 2; HNF4A DNA FP: -1.4; Calb FLC: -5; LANA-H2A inh: 1.1

Results for Cc1ccc(S(=O)(=O)N2CCCCC2)cc1C(=O)NCCN1CCOCC1 ?
Vif TR-FRET: -6%; ALR H2O2 inh: -8; Beta2AR agonist: 1; HNF4A DNA FP: 0.1; LANA-H2A inh: -7.3

Results for Cn1c(Nn2cnnc2)nc2ccccc21 ?
RanGTP-Impb inh: 1.1; Vif TR-FRET: -4%; ALR H2O2 inh: 4; Beta2AR agonist: 3; HNF4A DNA FP: 3.6; Calb FLC: -5; LANA-H2A inh: 2.2

Results for O=C(CNC(=O)c1cccc([N+](=O)[O-])c1)OCCCC(=O)c1ccc(F)cc1 ?
ALR H2O2 inh: -6; Beta2AR agonist: -10; HNF4A DNA FP: 3.2; LANA-H2A inh: -4.3

What do the screens show for `Cc1cc(C)cc(C(=O)O/N=C(\N)c2ccc(Br)cc2)c1`?
RanGTP-Impb inh: -1.9; Vif TR-FRET: -3%; ALR H2O2 inh: -11; Beta2AR agonist: 12; HNF4A DNA FP: 1.3; Calb FLC: -13; LANA-H2A inh: -1.6

Results for Cc1cc2cc(C)c(NCCNC(=O)c3ccccc3Cl)nc2cc1C ?
RanGTP-Impb inh: inconclusive; Vif TR-FRET: inconclusive; ALR H2O2 inh: 49; Beta2AR agonist: 5; HNF4A DNA FP: 1.3; Calb FLC: 2; LANA-H2A inh: 5.2

What do the screens show for `O=C(NCCCn1ccnc1)c1ccc2nccnc2c1`?
RanGTP-Impb inh: 0.3; Vif TR-FRET: -4%; ALR H2O2 inh: 1; Beta2AR agonist: 8; HNF4A DNA FP: -0.8; Calb FLC: -7; LANA-H2A inh: 1.4

How did Cn1c(=O)oc2cc(S(=O)(=O)NCc3ccc(Cl)cc3)ccc21 do in these assays?
RanGTP-Impb inh: 4.4; ALR H2O2 inh: -10; Beta2AR agonist: -3; HNF4A DNA FP: -1.9; Calb FLC: 12; LANA-H2A inh: -0.1

How did Cc1ccc(NS(=O)(=O)c2ccc(C)c(C(=O)N3CCN(C)CC3)c2)cc1 do in these assays?
RanGTP-Impb inh: -1.7; Vif TR-FRET: 4%; ALR H2O2 inh: -46; Beta2AR agonist: 7; HNF4A DNA FP: -1.2; Calb FLC: -9; LANA-H2A inh: -1.0

What do the screens show for `Cc1ccc(S(=O)(=O)N2CCN(C(=O)CNC(=O)c3sc4ccccc4c3Cl)CC2)cc1`?
RanGTP-Impb inh: 0.9; Vif TR-FRET: -13%; ALR H2O2 inh: 8; Beta2AR agonist: -8; HNF4A DNA FP: 1.9; Calb FLC: 1; LANA-H2A inh: 1.9

What do the screens show for `Cc1ccc(CSCCNC(=O)CCSc2ccccc2)cc1`?
RanGTP-Impb inh: 2.3; Vif TR-FRET: inconclusive; ALR H2O2 inh: 1; Beta2AR agonist: -2; HNF4A DNA FP: 1.9; Calb FLC: 3; LANA-H2A inh: 5.3

Results for O=C(COC(=O)C1CCN(c2ccc(C(F)(F)F)cn2)CC1)Nc1ncc(Cl)cc1Cl ?
Vif TR-FRET: -25%; ALR H2O2 inh: -6; Beta2AR agonist: 8; HNF4A DNA FP: -3.3; LANA-H2A inh: 5.5

Results for O=C(CCC(=O)OCC(=O)c1ccc(Br)cc1)Nc1cccc2cccnc12 ?
RanGTP-Impb inh: -0.6; Vif TR-FRET: 11%; ALR H2O2 inh: -11; Beta2AR agonist: 14; HNF4A DNA FP: 2.4; Calb FLC: -11; LANA-H2A inh: -0.8

What do the screens show for `COc1ccc(S(=O)(=O)N2CCOCC2)cc1NC(=O)C1CC1`?
Vif TR-FRET: -9%; ALR H2O2 inh: 4; Beta2AR agonist: 3; HNF4A DNA FP: 2.5; LANA-H2A inh: 1.5

Results for COC(=O)CNC(=O)C(NC(=O)c1ccc(Cl)cc1)C(C)C (stereo not given) ?
RanGTP-Impb inh: 1.8; Vif TR-FRET: 2%; ALR H2O2 inh: 4; Beta2AR agonist: 8; HNF4A DNA FP: 0.4; Calb FLC: 5; LANA-H2A inh: 3.5

What do the screens show for `Cc1ccccc1OCc1nc2ccccc2c(=O)n1N`?
RanGTP-Impb inh: 3.1; Vif TR-FRET: -3%; ALR H2O2 inh: -1; Beta2AR agonist: 6; HNF4A DNA FP: 0.0; Calb FLC: 2; LANA-H2A inh: 0.9

What do the screens show for `COc1ccccc1-c1cc(=O)c2c(O)ccc([N+](=O)[O-])c2o1`?
RanGTP-Impb inh: -1.3; ALR H2O2 inh: 0; Beta2AR agonist: 4; HNF4A DNA FP: 1.6; Calb FLC: -3; LANA-H2A inh: 7.0

How did Cc1cc(-c2ccc(S(=O)(=O)N3CCCCC3)s2)on1 do in these assays?
RanGTP-Impb inh: 1.5; ALR H2O2 inh: -1; Beta2AR agonist: -2; HNF4A DNA FP: 0.7; Calb FLC: -6; LANA-H2A inh: 3.7

How did O=C(Nc1ccc(Cl)c(Cl)c1)Nc1nc(-c2ccccc2)cs1 do in these assays?
RanGTP-Impb inh: -1.0; Vif TR-FRET: 17%; ALR H2O2 inh: 1; Beta2AR agonist: 0; HNF4A DNA FP: -6.0; Calb FLC: 3; LANA-H2A inh: 4.5

What do the screens show for `N#Cc1ccccc1Sc1ccccc1C(=O)OCC(N)=O`?
RanGTP-Impb inh: -5.7; Vif TR-FRET: 15%; ALR H2O2 inh: 14; Beta2AR agonist: -1; HNF4A DNA FP: 5.2; Calb FLC: 2; LANA-H2A inh: -1.7

What do the screens show for `CCC(=O)Nc1ccc2c(c1)ncn2-c1ccc(OC)cc1`?
RanGTP-Impb inh: 7.1; Vif TR-FRET: -2%; ALR H2O2 inh: -10; Beta2AR agonist: -3; HNF4A DNA FP: 0.2; Calb FLC: -6; LANA-H2A inh: 8.5
